Ecoli growth – E. coli growth inhibition, primary screen, OD600; Escherichia coli growth, 23 h; stronger effect = lower value; OD600 absorbance (test concentration not listed); hit rate 0.21% among 330,000; AID 1053175, 2014;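 active = OD600 absorbance below the run mean of sample wells minus 3.6 SD, in any replicate, cut at about 0.56 in these data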;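 note: stock transfer was 300 nL into about 60 µL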
UCH37 inh – inhibitors of human UCH37 deubiquitinase, primary screen, biochemical, Ub-AMC cleavage, fluorescence | purified proteasome/UCH37 | Ubiquitin carboxyl-terminal hydrolase isozyme L5 (Homo sapiens), Q9Y5K5 | hit rate 0.33% among 330,000 | inhibition, % (test concentration not listed) | AID 588478, 2011;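 active = mean of two replicates above 20%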;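 note: 0% = compound-free wells with enzyme and 100% = wells lacking proteasome; stock transfer was 100 nL into about 20 µL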
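assay system = human UCH37 enzyme supplied as purified proteasome complex | amount = proteasome at 0.15 nM in the dispensed enzyme solution | schedule = 30 min compound-proteasome preincubation then 25 min substrate reaction, room temperature | measured by = fluorescence, ex 355 nm, em 460 nm | benchmarks = no-proteasome wells (full inhibition) and compound-free wells (no inhibition)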
rRNA inh HTS – reduced GFP signal of wild-type E. coli, primary screen, bacterial rRNA inhibitor project, GFP/RFP fluorescence, OD600, single point | E. coli WT GFP vs humanized-ribosome RFP mutants, 24 h; stronger effect = lower value; DMSO median 0, no signal -100 | GFP signal change (wild-type ribosome), % (no concentration beside the values) | hit rate 1.6% among 350,000 | AID 720706, 2013;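 active = significant combined selectivity score with lowered wild-type GFP, culture density cut under 30%, mutant RFP and density less affected; inactive = any of these conditions unmet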; note: one replicate is shown; some compounds called inactive have numbers as strong as hits
ALR inh – inhibitors of human ALR sulfhydryl oxidase, primary screen, biochemical, H2O2 detection, HRP-luminol luminescence, single point; AID 485317, 2010; FAD-linked sulfhydryl oxidase ALR (Homo sapiens), P55789; purified ALR, DTT oxidation; inhibition, % (concentration not given with the values); hit rate 3.8% among 290,000;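 active = mean and each replicate at 75% or more; inconclusive = only one of the two met; inactive = neither met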;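 note: stock transfer was 7.5 nL into about 7.5 µL; 0% = neutral wells and 100% = wells with inactivated enzyme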
Target sequence (P55789 whole entry, looked up): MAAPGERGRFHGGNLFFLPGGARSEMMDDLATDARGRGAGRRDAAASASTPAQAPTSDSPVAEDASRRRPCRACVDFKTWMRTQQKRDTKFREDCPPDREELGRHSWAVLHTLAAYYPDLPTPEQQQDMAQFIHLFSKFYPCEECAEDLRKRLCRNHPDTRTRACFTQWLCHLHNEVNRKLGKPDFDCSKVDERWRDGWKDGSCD
FGF22 binding – binders of human FGF22 protein, primary screen, FGF22 synaptogenesis inhibitor project, biophysical, thermal shift, single point; calls only at 9.99 µM; hit rate 1.5% among 340,000; recombinant FGF22 thermal shift, SYPRO orange fluorescence; percent of sucrose octasulfate shift, DMSO zero; Fibroblast growth factor 22 (Homo sapiens), Q9HCT0;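 active = melting point raised past a set limit in the mean and every replicate; inconclusive = no clear call; three in four hits are not shown here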
Target sequence (Q9HCT0 whole entry, looked up): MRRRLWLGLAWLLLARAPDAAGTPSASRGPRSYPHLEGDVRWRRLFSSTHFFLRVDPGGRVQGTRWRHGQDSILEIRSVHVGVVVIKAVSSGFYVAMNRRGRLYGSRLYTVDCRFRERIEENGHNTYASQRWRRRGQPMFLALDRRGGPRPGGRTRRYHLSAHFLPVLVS
HNF4A DNA FP – change in binding of human HNF4A to DNA, primary screen, biochemical, fluorescence polarization, FITC-DNA | activity change, % at 10 µM | Hepatocyte nuclear factor 4-alpha (Homo sapiens), P41235 | hit rate 0.3% among 360,000 | 1 h | AID 1224865, 2016; in the data active = activity change above about 30%, passing the limit was not always enough;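 note: controls were the assay level and a saturating level of protein; the project sought stronger binding though the title names inhibitors; some compounds called inactive have numbers as strong as hits; positive values seem to mean higher polarization but the record does not say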
Beta2AR agonist – beta2AR agonists driving receptor internalization, primary screen, cell-based, FAP fluorogen, flow cytometry; Am2.2-beta2AR cells; reference of the scale not given here; response, % (test concentration not listed); Beta-2 adrenergic receptor (Homo sapiens), P07550; hit rate 0.43% among 340,000;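 active = response above a set limit, near 3 SD of response in nonfluorescent compounds, cut at about 42% in these data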;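 note: stock transfer was 100 nL into about 11 µL; a reference agonist was the positive control; negative values mostly stem from fluorescent compounds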
Target sequence (P07550 whole entry, looked up): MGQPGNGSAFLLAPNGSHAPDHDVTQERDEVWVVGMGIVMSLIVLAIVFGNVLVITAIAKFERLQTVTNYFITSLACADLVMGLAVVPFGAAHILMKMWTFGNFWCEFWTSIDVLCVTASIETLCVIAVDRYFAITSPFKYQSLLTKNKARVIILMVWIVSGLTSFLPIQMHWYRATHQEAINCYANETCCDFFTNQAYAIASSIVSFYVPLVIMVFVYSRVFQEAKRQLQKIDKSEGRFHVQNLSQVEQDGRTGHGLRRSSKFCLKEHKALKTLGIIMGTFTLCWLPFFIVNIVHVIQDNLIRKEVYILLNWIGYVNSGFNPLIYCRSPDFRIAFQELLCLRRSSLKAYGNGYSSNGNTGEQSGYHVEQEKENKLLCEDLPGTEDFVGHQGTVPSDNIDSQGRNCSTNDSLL
rRNA inh HTS OD600 – second read-out of rRNA inh HTS, no call of its own (marks repeat the call); OD600 change, %; measured here: OD600 growth;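 optical density of the mix in the first replicate; 0 = DMSO median and -100 = no signal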
rRNA inh HTS RFP – second read-out of rRNA inh HTS, no call of its own (marks repeat the call); RFP signal change, %; measured here: RFP humanized mutant strains;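 first replicate; 0 = DMSO median and -100 = no signal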
The depositor's hits bear a star; i = inactive; ? = inconclusive; · = no result given; & = joins results of further samples. A portion of the library (hit frequency here may not be typical).

SMILES | Ecoli growth | UCH37 inh | rRNA inh HTS | rRNA inh HTS OD600 | rRNA inh HTS RFP | ALR inh | FGF22 binding | HNF4A DNA FP | Beta2AR agonist
CSCCC(C(=O)NCc1cccs1)N1C(=O)c2ccccc2C1=O (configuration not stated) | 0.71 | 4.1 | -2 | 0 | 1.7 | -6 | · | 1.1 | -3
COc1ccc(CCNC(=O)COC(=O)c2cncc(Br)c2)cc1OC | 0.68 | 1.6 | 0 | 4 | -3.4 | -12 | i | 2.7 | -1
Cc1ccc2c(C(=O)CN3CCC4(CC3)OCCO4)c(C)[nH]c2c1 | 0.75 | 0.1 | · | · | · | 64 | · | -4.9 | 9
COCCN1Cc2cccc(C(=O)Nc3ccccc3OC)c2C1=O | 0.69 | 1.7 | · | · | · | -2 | · | 1.4 | -16
C[C@@H]1CN([C@@H](C)CO)C(=O)CCCn2cc(nn2)CO[C@H]1CN(C)C(=O)Oc1ccccc1 | · | · | 13&1 | 9&-1 | 0.9&-0.9 | · | i | -1.2 | ·
Cc1c(C(=O)N2CCCC2)sc(NC(=O)c2cccs2)c1C#N | 0.72 | 6.7 | · | · | · | 5 | · | 1.8 | -12
Cc1nn(-c2ccccc2)c(C)c1NC(=O)COC(=O)c1ccc(O)cc1O | 0.68 | -1.1 | 0 | 3 | -1.6 | 16 | i | -1.0 | 10
CN(CCc1ccccc1)C(=O)c1cccc(NC(=O)Cc2cccc(NC(=O)C3CCN(C(=O)C4CC4)CC3)c2)c1 | 0.72 | 1.2 | -1 | -4 | -1.2 | · | i | 1.3 | -10
COc1ccc(CNC(=O)CN(C(=O)c2csnn2)c2cccc(F)c2)cc1 | 0.65 | 7.4 | 0 | 4 | 1.5 | -5 | i | -0.6 | -3
Cc1ccccc1NC(=O)CC1C(=O)NCCN1C(=O)c1cccc(Cl)c1 (configuration not stated) | 0.69 | 0.6 | 4 | 9 | -0.4 | -3 | i | -1.2 | -3
O=C(CSc1nnc(CN2CCOCC2)n1-c1ccc(Cl)cc1)N1CCc2ccccc21 | 0.71 | 4.8 | · | · | · | -4 | · | -1.1 | -3
COc1ccc(-n2nnc3c(=O)n(Cc4ccccc4C)cnc32)cc1 | 0.73 | 0.7 | 17 | 7 | 1.2 | -5 | i | -1.2 | 6
COc1ccc(N2CCN(C(=O)CSc3nc4ccccc4c(=O)[nH]3)CC2)cc1 | 0.72 | 0.9 | 1 | 2 | 2.4 | -5 | i | 1.8 | -6
Cc1cccc(Cn2cc3c(=O)n(Cc4cccc(F)c4)nc-3c3ccccc32)c1 | 0.71 | 5.0 | 11 | 13 | 1.3 | -10 | i | 3.4 | 0
COc1ccccc1-c1nnc(SCC(=O)O)n1-c1ccccc1 | · | · | 12 | -1 | 0.7 | -16 | i | 0.6 | 2
CC1CCCC(NC(=O)c2ccc(F)c(S(=O)(=O)N3CCOCC3)c2)C1C (configuration not stated) | 0.71 | 5.2 | 7 | 4 | -1.4 | -5 | i | -0.8 | -1
O=[N+]([O-])c1cc(-c2n(-c3ccccn3)c3ccccc3[n+]2-c2ccccn2)ccc1Cl | 0.66 | 0.9 | 24 | 16 | 1.8 | -7 | i | 0.7 | 0
COc1cc(/C=C/C(=O)OCC(=O)N2CCCC2)ccc1OCC#N | 0.69 | -16 | 10 | 20 | -0.2 | -3 | i | -0.8 | -8
CCc1ccc(OCCNC(=O)c2ccco2)cc1 | 0.71 | 0.0 | -11 | -14 | 1.0 | 3 | i | 0.1 | 5
CCCCCCN1C2=NCCN2c2ccccc21 | 0.69 | 6.8 | · | · | · | 63 | · | 0.1 | -13
O=C(COC(=O)c1cccs1)NC1CCCCC1 | 0.79 | 0.8 | · | · | · | -5 | · | -1.5 | -1
Cn1c(=O)c2c(ncn2CC(=O)Nc2ccccc2N2CCOCC2)n(C)c1=O | 0.7 | 3.0 | · | · | · | -16 | · | 0.7 | -7
Cc1ccc(NC(=O)CSc2nnc(C)c(=O)n2N)c(C)c1 | 0.7 | 0.8 | · | · | · | -5 | · | -1.4 | 4
NC(=O)NC1CCCc2c1[nH]c1ccc(Cl)cc21 (configuration not stated) | 0.75 | 5.4 | -50 | -66 | -2.6 | 98* | i | 5.7 | 20
Cc1ccc(C(=O)NCCc2nnc3ccc(SCC(=O)Nc4nnc(C)s4)nn23)cc1 | · | · | 11 | 16 | 4.9 | · | i | -0.9 | ·
Carrying on:
SMILES | Ecoli growth | UCH37 inh | rRNA inh HTS | rRNA inh HTS OD600 | rRNA inh HTS RFP | ALR inh | FGF22 binding | HNF4A DNA FP | Beta2AR agonist
Cc1nc2sccn2c(=O)c1S(=O)(=O)Nc1ccc(N2CCN(C)CC2)cc1 | 0.69 | 4.3 | 2 | 4 | -1.5 | 97* | i | 0.1 | 5
Cc1c(C(=O)NC2CCN(Cc3ccccc3)C2)oc2ccc(Br)cc12 (configuration not stated) | 0.58 | 2.7 | -65 | -81 | -19 | -8 | i | 2.0 | -3
CCc1nc(N)nc(N)c1-c1ccc(Cl)cc1 | 0.48 | 3.3 | · | · | · | · | i | 5.0 | -4
Cc1cc(OCC(=O)Nc2ccc(CN3CCOCC3)cc2)c2c(C)cc(=O)oc2c1 | 0.68 | -83 | -6 | -3 | -1.9 | 2 | i | 2.7 | -11
Cc1ccc(OCC(=O)NCCN2CCOCC2)cc1C | 0.67 | 2.2 | · | · | · | 87* | · | 0.5 | -6
C/C(=N\NC(=O)c1nnn(-c2nonc2N)c1C)c1ccc(-c2ccccc2)cc1 | · | · | 3 | 1 | -1.2 | · | i | -0.5 | 4
COc1ccc(C2C(C(=O)NCCN3CCOCC3)c3ccccc3C(=O)N2C)cc1OC (configuration not stated) | 0.7 | -1.3 | · | · | · | 40 | · | -2.5 | 0
CCC(Cc1ccccc1)NC(=O)C1CCCCC1 (configuration not stated) | 0.59 | 5.9 | 4 | 6 | -0.4 | -5 | i | 7.3 | -2
Cn1cc(SCC(=O)NCc2ccc(F)cc2)c2ccccc21 | 0.66 | 2.4 | -8 | -10 | 0.4 | 7 | i | 0.9 | 1
Nc1ccccc1-c1ccc([N+](=O)[O-])cc1 | 0.65 | 2.6 | -1 | 8 | -0.5 | · | i | 5.4 | 1
Cc1cccnc1NC(=O)CCCc1c[nH]c2ccccc12 | 0.69 | -0.3 | 5 | 11 | -1.8 | ? | i | 1.3 | 2
COc1ccc(C(=O)NNC(=O)c2ccc(C)cc2)cc1S(=O)(=O)N1CCCC1 | 0.67 | 2.1 | 27 | 15 | 0.0 | -7 | i | 1.9 | 0
COc1ccc(NC(=O)COc2coc(CN3c4ccccc4CC3C)cc2=O)cc1 (configuration not stated) | 0.72 | 1.9 | 9 | 11 | 0.5 | 7 | i | -2.2 | 1
S=C(NCc1ccncc1)Nc1ccc(Cl)c(Cl)c1 | 0.54 | 1.1 | · | · | · | 17 | · | -2.2 | -5
CCCNC(=O)C[C@H]1CC[C@@H]2[C@H](COC[C@@H](O)CN2C(=O)c2ccccn2)O1 | · | · | 4&16 | 5&15 | -3.6&2.3 | · | i | -2.7 | ·
Cc1nn(C)c(C)c1S(=O)(=O)N(CC(=O)Nc1nccs1)c1ccc(C(C)C)cc1 | 0.74 | 3.2 | -6 | -16 | -4.7 | · | i | 3.2 | -17
COc1ccc(/C=C2\OC(=O)c3c(OC)cccc32)cc1OC | 0.75 | -100 | · | · | · | -13 | · | -1.2 | 5
Cc1nc(CCN2C(=O)c3ccccc3C2=O)n[nH]1 | 0.66 | 0.3 | · | · | · | -2 | · | -2.5 | 3
O=c1[nH]c(N2CCCCCC2)nc2ncn(Cc3ccccc3)c12 | 0.67 | 5.4 | -5 | 4 | -2.1 | -2 | i | -3.1 | -16
CN1CCN(C(=O)c2cc3c(c(-c4cccc(C#CC(C)(C)O)c4)n2)[C@H](CCO)N(S(=O)C(C)(C)C)C3)CC1 (some centres not stated) | · | · | 17 | 6 | 4.9 | · | i | -3.0 | ·
Cc1ccc(-n2c(C)nc3ccsc3c2=O)cc1 | 0.71 | 5.4 | -36* | -18* | 9.3* | -1 | i | 1.2 | -2
O=C(N/N=C/c1ccco1)c1ccc(NC(=O)C2CCCCC2)cc1 | · | · | 24 | 17 | 4.2 | -10 | i | 2.1 | -16
Cc1nccn1CCCNC(=O)c1nc(Cn2cc([N+](=O)[O-])cn2)no1 | 0.68 | 0.1 | 8 | 10 | 1.2 | -10 | i | -0.9 | -1
COC(=O)c1ccccc1S(=O)(=O)N1CCC(C(=O)OCC(=O)c2ccccc2OC)CC1 | 0.64 | -1.5 | 2 | -6 | 5.5 | -5 | i | -3.2 | 15
O=S(=O)(Cc1ccccc1)Nc1ccc(F)cc1 | 0.69 | 1.4 | 2 | -4 | -1.6 | -19 | i | -2.5 | -3

An excerpt of the results above, as a working copy:
SMILES | Ecoli growth | UCH37 inh | rRNA inh HTS | rRNA inh HTS OD600 | rRNA inh HTS RFP | ALR inh | FGF22 binding | HNF4A DNA FP | Beta2AR agonist
O=C(N/N=C/c1ccco1)c1ccc(NC(=O)C2CCCCC2)cc1 | · | · | 24 | 17 | 4.2 | -10 | i | 2.1 | -16
Cc1nccn1CCCNC(=O)c1nc(Cn2cc([N+](=O)[O-])cn2)no1 | 0.68 | 0.1 | 8 | 10 | 1.2 | -10 | i | -0.9 | -1
COC(=O)c1ccccc1S(=O)(=O)N1CCC(C(=O)OCC(=O)c2ccccc2OC)CC1 | 0.64 | -1.5 | 2 | -6 | 5.5 | -5 | i | -3.2 | 15
O=S(=O)(Cc1ccccc1)Nc1ccc(F)cc1 | 0.69 | 1.4 | 2 | -4 | -1.6 | -19 | i | -2.5 | -3

Other compounds
SMILES | Ecoli growth | UCH37 inh | rRNA inh HTS | rRNA inh HTS OD600 | rRNA inh HTS RFP | ALR inh | FGF22 binding | HNF4A DNA FP | Beta2AR agonist
COc1ccc(C(CNC(=O)c2ccc(NS(=O)(=O)c3ccc(F)cc3)cc2)N2CCOCC2)cc1 (configuration not stated) | 0.72 | -0.4 | -4 | -3 | 4.9 | 1 | i | -1.0 | 0
CN(C)N1C(N)=C(C#N)C(c2ccc(Br)cc2)C2=C1CCCC2=O (configuration not stated) | 0.65 | 3.4 | -1 | 4 | 0.2 | -103 | i | 0.6 | 9
Cc1ccc(S(=O)(=O)N2CCCCC2)cc1NC(=O)CSCC(=O)O | 0.65 | 3.0 | 14 | 15 | -0.9 | · | i | 4.7 | 3
O=C(NCCC1=CCCCC1)C(=O)NCC(c1ccco1)N1CCN(c2ccccc2)CC1 (configuration not stated) | 0.68 | -1.0 | · | · | · | · | · | -3.1 | 4
CCN(CC(=O)Nc1ccc(NC(C)=O)cc1)C(=O)CCCc1nc2ccccc2c(=O)[nH]1 | 0.68 | -2.1 | 1 | -6 | -0.2 | 3 | i | -1.0 | 2
COCCn1nnnc1CN1CCN(C(=O)c2ccco2)CC1 | 0.69 | 1.6 | 4 | 7 | -1.8 | 2 | i | -2.7 | 4
COc1ccc(CN(CC2CCCO2)C(=O)CN2C(=O)C(C)Oc3ccc(C)cc32)cc1OC (configuration not stated) | 0.69 | 2.0 | · | · | · | -4 | · | 1.1 | 1
CC1=NN(c2ccc(C)cc2)C(=O)/C1=C\c1ccc(Br)s1 | 0.73 | 7.5 | 20 | 18 | -4.1 | -4 | i | -0.8 | -3

Screens from PubChem BioAssay.
